ClpP mod: qHTS Assay for Activators of ClpP; purified B. subtilis ClpP, FRET peptide cleavage, 20 min; Potency, µM (top dose mostly 57.5 µM), without a hit: at the top dose activity change, negative = active; 340,000 compounds, 1.9% hits; active = well fitted falling curve with a large enough effect; inconclusive = small, poorly fitted or top-dose-only effect; inactive = no such curve, though single readings can be large or run the other way; note: potency is the fitted concentration of half-maximal effect; the source files actives as falling curves though it sought activators and does not explain the sign; nearly all actives have a fitted effect of over 65% in size; many hits overshoot -100%
Target sequence (P80244 whole entry, looked up): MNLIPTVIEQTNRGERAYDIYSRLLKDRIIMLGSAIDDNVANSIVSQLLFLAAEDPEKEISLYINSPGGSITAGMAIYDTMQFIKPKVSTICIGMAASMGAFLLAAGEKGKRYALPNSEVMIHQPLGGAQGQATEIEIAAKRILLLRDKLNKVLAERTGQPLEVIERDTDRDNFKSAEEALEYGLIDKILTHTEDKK
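ClpP 10 microg/mL final, pH 8 Tris/KCl buffer with BSA, glycerol, Tween-20; compound pinned in; FRET-FV substrate; RT 20 min; Ex320/Em430; ΔFRET vs ADEP 5.8 microM, DMSO, no enzyme.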
TRPML1 agonist: activates the human TRPML1 channel. Q9GZU1. TRPML1-expressing cells, Ca2+ dye fluorescence, FDSS; host cell line not named in the record; reference of the full effect not given here. activation, % (test concentration not listed). 410,000 compounds, 0.12% hits; in the data active = activation above about 50%; inconclusive = about 30% to 50%; inactive = below about 30%; note: 0% is about no effect; the text of the record puts the active cut at 80%
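In this qHTS format, compounds were pin-transferred onto Ca8-dye-loaded TRPML1-DL cells induced with Tet overnight, and intracellular Ca2+ fluorescence was recorded kinetically for 110 s after a 10 s baseline. A subsequent 4uM final 54-4 (EC80) addition followed by a second 110 s read served as the antagonist phase.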
TRPML1 inh: human mucolipin-1 channel inhibition; activity change, negative = inhibition, % (test concentration not listed); TRPML1-inducible cells, Ca2+ dye fluorescence, FDSS; active compounds read low; inhibition of EC80 agonist-evoked calcium signal; 390,000 compounds, 0.02% hits; Q9GZU1; in the data active means activity change below about -50%; inconclusive means about -30% to -50%; inactive means above about -30%;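 note: stimulus is agonist 54-4 at its EC80 concentration; % is set by controls: 0 for no effect and ±100 for the full control effect; compound concentration not given in the record; the text of the record puts the active cut at -80%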
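Tet-induced TRPML1-DL cells loaded with Ca8 no-wash calcium dye were read kinetically on FDSS. Compound addition was followed by EC80 agonist 54-4 (4 uM final); inhibition was read over 110 s.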
Sfp inh: inhibitors of Bacillus subtilis Sfp phosphopantetheinyl transferase; AID 1490; Biochemical Sfp PPTase activity, qHTS; Potency, µM, without a hit: max response, negative = inhibition, most hits filed as inhibitors; 310,000 compounds, 3.5% hits; active = well fitted inhibition curve with a large enough effect; inconclusive = small, poorly fitted or top-dose-only effect, or another doubt; inactive = no such curve, though single readings can be large or run the other way;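 note: the enzyme is Sfp with the accession as filed and its product quenches rhodamine fluorescence; potency is the fitted concentration of half-maximal effect; 0% = enzyme reaction without inhibitor and -100% = no enzyme wells; top concentration of the series not given in the record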
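Buffer: 50 mM Hepes-Na pH 7.6, 10 mM MgCl2, 0.01% Nonidet P-40, 0.01% BSA. Enzyme 15 nM, pre-exposed to compound 15 min; substrates then added and fluorescence change tracked over 30 min.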
Menin MLL FP FL: menin-MLL binding inhibition, fluorescein peptide; Fluorescence polarization, fluorescein-MLL peptide displacement from menin; 290,000 tested, under 10 active; FP activity change, % at 61.4 µM; inconclusive = falling polarisation curve, or a change in total fluorescence; inactive = total fluorescence flat and polarisation flat or rising; no compound was filed as active; the % refers to the polarisation; negative = inhibition;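 note: % of control where 0% means no effect; inhibitors lower the polarisation; unlabelled MLL peptide was the positive control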
TRPV1 potentiator: enhances activation of the human vanilloid receptor TRPV1; TRPV1-expressing cells, Fluo-8 calcium influx, capsaicin EC20 potentiation; host cell line not named in the record; control for the full effect not named in the record; Q8NER1; AID 540277; potentiation, % at 8.33 µM; 320,000 compounds, 0.02% hits; active means potentiation above 80%; inconclusive means 30% to 80%; inactive means below 30%; note: 0% is about no effect
Target sequence (Q8NER1 whole entry, looked up): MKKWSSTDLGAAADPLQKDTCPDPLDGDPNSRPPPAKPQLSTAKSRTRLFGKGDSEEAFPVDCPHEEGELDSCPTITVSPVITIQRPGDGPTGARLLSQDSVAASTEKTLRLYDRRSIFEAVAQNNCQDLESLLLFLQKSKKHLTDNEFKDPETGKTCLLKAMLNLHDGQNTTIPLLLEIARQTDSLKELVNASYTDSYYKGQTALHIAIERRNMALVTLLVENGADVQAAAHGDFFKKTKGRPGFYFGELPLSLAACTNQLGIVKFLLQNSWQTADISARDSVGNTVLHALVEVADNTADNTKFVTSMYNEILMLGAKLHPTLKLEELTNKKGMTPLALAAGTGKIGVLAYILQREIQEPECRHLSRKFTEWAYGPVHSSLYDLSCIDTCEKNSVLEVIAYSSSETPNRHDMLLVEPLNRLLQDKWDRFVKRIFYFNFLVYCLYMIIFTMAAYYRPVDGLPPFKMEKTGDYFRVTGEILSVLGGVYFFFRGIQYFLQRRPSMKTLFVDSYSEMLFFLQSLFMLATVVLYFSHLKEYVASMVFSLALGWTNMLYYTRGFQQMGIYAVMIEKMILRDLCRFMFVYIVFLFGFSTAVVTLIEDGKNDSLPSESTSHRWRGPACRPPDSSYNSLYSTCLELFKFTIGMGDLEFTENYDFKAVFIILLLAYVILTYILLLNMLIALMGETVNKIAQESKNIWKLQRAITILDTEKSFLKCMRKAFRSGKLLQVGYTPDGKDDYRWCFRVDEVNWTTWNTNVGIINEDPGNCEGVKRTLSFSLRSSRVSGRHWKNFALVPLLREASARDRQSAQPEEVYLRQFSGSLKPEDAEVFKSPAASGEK
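Cells expressing TRPV1 were dye-loaded with Fluo-8 and read kinetically: 10 s baseline, 3 min after compound (agonist portion), then 2 min after EC20 capsaicin (allosteric enhancer portion). Calcium-bound dye fluorescence at 480/520 nm.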
PINK1 modulator: modulators of PINK1 expression | Potency, µM (titrated, usually from 76.6 µM), without a hit: at the top dose activation (PINK1 increase), most hits filed as activators | 410,000 compounds, 0.2% hits | PINK1 immunofluorescence, high-content cytometry, 24 h | AID 624263; active = well fitted activation curve with a large enough effect; inconclusive = small, poorly fitted or top-dose-only effect; inactive = flat fitted curve, though single readings scatter; cell line not stated here;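 note: potency is the fitted concentration of half-maximal effect; % of control where 0% means no effect; nearly all actives have a fitted effect of over 65% in size; a mitochondrial uncoupler was the plate control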
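Stable cell line, 250 cells/well, 12 h attachment; compounds pinned at 5 concentrations, 24 h; CCCP control. Fixed with nuclear dye, primary antibodies 12 h at 10 degrees C, secondary plus cell stain; laser-scanning cytometer read.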
* = called active by the depositor; ? = inconclusive; . = not tested or not shown; & = joins results of further samples; ! = not active in a repeat; [ ] = another dose, or the depositor's remark.

Each structure is followed by: ClpP mod, TRPML1 agonist, TRPML1 inh, Sfp inh, Menin MLL FP FL, TRPV1 potentiator, PINK1 modulator
O=C(NC1CCC(O)CC1)c1ccc(S(=O)(=O)NCc2ccco2)cc1 (stereo not drawn)
    ?, -0.3, 3, 1%, -4.4, 4, 0.8%
O=C(CCn1cnc(-c2ccccc2)c1-c1ccccc1)N/N=C/c1ccccc1O
    -12%, 4.7, 15, 6%, 5.2, 1, 1.7%
COc1ccc(CCC(=O)N2CCN(c3ccc([N+](=O)[O-])cc3)CC2)cc1OC
    ., 2.4, 20, 9%, 0.3, -23, 0.7%
CCO[C@@H]1OC(C(=O)O)=C[C@H](c2ccccc2)[C@H]1CCCO
    1.7%, -0.7, 10, ., ., ., 0.3%
O=C1CSC(c2cccc([N+](=O)[O-])c2)N1c1ccc(O)cc1 (stereo not drawn)
    0.2%, 5.0, -10, 21%, -5.4, 3, -1.0%
Cc1cccc(C)c1OCc1nc2c3cnn(-c4ccccc4F)c3ncn2n1
    -0.4%, 0.7, 22, ., ., ., -0.5%
COc1ccc(NCc2nnc(SCC(=O)c3ccc(OC)cc3)n2C)cc1
    0.5%, ?, -6, -8%, 1.9, 9, -1.2%
COc1cc(OC)c(C2Nc3ccccc3-c3nnc(SCc4ccccc4)nc3O2)cc1OC (stereo not drawn)
    -9.8%, 0.2, 10, ., ., ., 0.1%
CN(C(=O)c1ccc(OC2CCN(S(=O)(=O)N(C)C)CC2)cc1)C1CCCCC1
    0.2%, -0.5, -1, 14%, -0.7, 13, 0.4%
Cc1ccc(Nc2nc(N)nc(CC#N)n2)cc1
    -17%, -0.4, 17, 19%, 2.9, -5, .
Cc1cc(F)c(F)c(C(=O)N2CCOCC2)c1
    0.1%, -0.4, -5, 13%, 5.6, 5, 0.1%
O=C(CN1C(=O)C2(OCCCO2)c2ccccc21)NCc1ccccc1
    -0.5%, -0.6, 0, 27%, 1.6, -15, 0.2%[38.3 µM]
CCN(C(=O)C1CCN(S(=O)(=O)c2ccc3c(c2)CCCN3C(=O)C2CCC2)CC1)c1cccc(C)c1
    20%, 2.0, -11, ., ., ., -2.1%
CC(C)c1ccc(NC(=O)CSc2nc3ccsc3c(=O)n2Cc2ccc(C(=O)O)cc2)cc1
    -1.4%, 0.2, 3, -10%, -3.5, 8, 2.3%
COC(=O)c1nn(-c2cccc(Cl)c2)cc(OC)c1=O
    -4.8%, 0.9, -3, -1%, -0.5, 5, -1.9%
CCOc1ccc(NC(=O)CSc2ncc3c(n2)-c2ccccc2N(C)S3(=O)=O)cc1
    3.9%, 1.0, 5, ., ., ., 1.5%
Cc1ccc(C)c(NS(=O)(=O)c2ccc(NC(=O)c3ccco3)cc2)c1
    -3.2%, 1.1, 3, 10%, 2.4, -2, 3.1%
CC(=O)Nc1ccc(NC(=O)c2ccccc2F)cc1
    1.0%, -0.5, 3, 18%, 1.1, -10, 0.3%[38.3 µM]
C=CCn1c(SCc2ccccc2)nnc1-c1cccnc1
    -2.1%, 0.1, 14, 9%, 0.8, 2, ?
O=C(Nc1ccc(F)cc1)c1sc(Cl)nc1-c1ccccc1
    2.1%, -0.5, 4, 4%, 3.2, -3, -1.4%
CCOC(=O)CCCNC(=O)COC(=O)c1ccc(O)cc1
    0.3%, -0.6, -8, 5%, 0.8, -1, -1.8%
O=C(NC1CCS(=O)(=O)C1)c1ccc(Br)o1 (stereo not drawn)
    ., 0.8, 14, 16%, 0.7, -8, 0.3%
COc1ccc(/C=C/C(=O)NC2CCCCCCC2)cc1S(=O)(=O)N1CCOCC1
    1.1%, 2.4, 17, 0%, 2.0, 10, 3.5%
O=C(CC1C(=O)NCCN1Cc1cccc(C(F)(F)F)c1)NCCc1cnccn1 (stereo not drawn)
    -6.0%, 0.4, 0, 17%, ., 6, 1.4%
COc1cc(C(=O)NCC(=O)N/N=C/c2cccc(OC(=O)c3ccco3)c2)cc(OC)c1OC
    0.1%, 0.1, -5, 9%, -0.2, 5, 0.3%
Cc1ccc(-c2nnn(CC(=O)N(c3ccccc3F)C(CC(C)C)C(=O)NCC3CCCO3)n2)cc1 (stereo not drawn)
    -0.5%, 0.3, -1, 12%, 5.3, 4, .
CN1CCN(C(=O)C2=C[C@H](c3ccc4c(c3)OCO4)C[C@H](OCCCCO)O2)CC1
    -9.3%, 0.4, 13, ., ., ., -0.2%
O=C(NCCC(c1ccccc1)c1ccccc1)c1cccs1
    0.1%, 1.1, -6, 19%, 0.5, 1, 13%
O=C(O)CCCN1C(=O)C2C3c4ccccc4C(c4ccccc43)[C@@H]2C1=O (stereo partly drawn)
    ., -0.5, -3, -7%, -1.7, -6, -0.5%
Cc1cc(=O)[nH]c(Nc2ccc(C(=O)OC(C)C)cc2)n1
    -15%, 1.3, -4, 16%, 4.1, -1, 2.0%
Cc1ccc(C(=O)N(CC(=O)NC2CCCC2)c2ccccc2F)s1
    -1.1%, -0.1, 16, ., ., ., 0.8%
O=C(c1ccco1)N1CCN(Cc2ccc(Br)cc2)CC1
    1.5%, 1.1, -5, 4%, -6.8, -21, -1.6%
O=C(Nc1cc2c3c(c1)CC(=O)N3CCC2)c1ccccc1Br
    -4.8%, -0.4, -14, ., ., 14, 0.1%
Cc1ccsc1C(=O)OC(C)C(=O)Nc1ccc(Cl)cn1 (stereo not drawn)
    2.5%, 0.8, 24, ., ., ., 2.9%
CCSc1c([N+](=O)[O-])c(=O)n(-c2ccccc2)c2ccccc12
    -2.5%, 2.1, 27, ., ., ., 0.0%
Cc1cccnc1NC(=S)Nc1ccc(F)cc1F
    ., -0.4, 0, 18µM*, -6.4, -4, 0.6%
O=C(Nc1ccc2c(c1)OCO2)c1cc2nc(C3CC3)cc(C(F)(F)F)n2n1
    2.2%, 0.2, 26, 2%, -4.2, -3, 15%[38.3 µM]
CC(=O)Nc1ccc(CN2CCC(N3CCC(C(=O)NC4CC4)CC3)CC2)cc1
    -1.7%, -0.3, -13, ., ., ., 0.5%
CCOc1nc(-c2ccccc2)ccc1-c1noc(-c2ccncc2)n1
    -25%, -0.7, -9, -18%, 0.8, -14, 9.7%
Cc1cccc(N(C(=O)c2snc(C(N)=O)c2N)C(C(=O)NC2CCCC2)c2ccc(C)o2)c1 (stereo not drawn)
    ., 3.4, 9, -9%, -5.0, -14, 14%
CCS(=O)(=O)c1nc(S(=O)(=O)c2ccc(Cl)cc2)c(N2CCc3ccccc3C2)s1
    2.4%, 0.8, 31, 10%, 9.5, 3, 2.4%
CN1CCN(C(=O)c2cn(C)c3ccc(S(=O)(=O)N(C)C4CCCCC4)cc3c2=O)CC1
    -3.0%, 0.9, 28, 14%, 2.9, -8, 0.8%
O=C(Cc1ccc(S(=O)(=O)N2CCCC2)s1)N1CCN(c2ccc(F)cc2)CC1
    ., -0.7, 1, 16%, 0.6, 28, 0.3%
COc1cccc(N=Nc2c(=O)[nH]n3c(=O)c4c([nH]c23)CCC4)c1
    -12%, -0.6, -3, -27%, -1.0, 7, 3.7%
CCc1c(C)sc(NC(=O)c2cc(-c3cccc(Cl)c3)on2)c1C#N
    8.1%, -0.2, 24, ., ., ., 1.9%
Cc1cc(/C=C2/NC(=O)N(c3ccccc3)C2=O)c(C)n1C(C)C
    ., -0.6, 6, 3%, 2.1, 10, 3.6%
COc1ccc(-c2c(NC(=O)c3ccco3)oc3ccccc3c2=O)cc1
    0.6%, -1.2, 0, 2%, ., -4, -1.6%
COc1ccc(CCNC(=O)CSCc2n[nH]c(=O)[nH]2)cc1OC
    -0.6%, -0.1, 9, 21%, -1.5, 4, ?
CC(C)(O)C#Cc1ncc(C(F)(F)F)cc1Cl
    -3.3%, 0.3, 12, 22%, -4.4, 2, -0.9%
CC1CCCN(C(=O)COC(=O)C2CCN(S(=O)(=O)c3c(Cl)cccc3Cl)CC2)C1 (stereo not drawn)
    -13%, 0.1, 8, ., ., -11, 0.8%

Next entries follow:
Each structure is followed by: ClpP mod, TRPML1 agonist, TRPML1 inh, Sfp inh, Menin MLL FP FL, TRPV1 potentiator, PINK1 modulator
Cc1ccc(NC(=S)N(Cc2ccccc2)C(C)C)cc1
    ., -0.5, 1, 0%, 2.1, ., 0.5%
CC(C)NC(=O)c1ccc(CN2CCC(Cc3ccccc3)CC2)cc1
    ., 0.0, 1, -25%, -1.2, 24, -0.1%
Cc1nnc2c(N3CCN(CCO)CC3)nc3ccccc3n12
    -2.9%, -0.3, 27, 8%, -7.1, 13, 0.9%
COc1ccc(NC(=O)Nc2cc(-c3cn4cccnc4n3)ccc2OC)cc1
    4.0%, 2.6, -9, ., ., ., 7.6%
CC(C)CN(C(=O)c1cccc(S(=O)(=O)N2CCCCC2)c1)C1CCS(=O)(=O)C1 (stereo not drawn)
    -1.4%&-4.3%, 0.0&0.1, -1&21, 6%, -0.9, -7, -0.8%&25%
O=C(OCC#CCSc1nnc(-c2cccc3ccccc23)o1)c1cccs1
    28µM*!, 3.6&3.2, -12, 12%, 4.1, 14, 0.8%&1.3%
COCC1CCN(C(=O)c2ccc(OC3CCN(Cc4ccccn4)CC3)cc2)C1 (stereo not drawn)
    0.5%, -0.2, 0, 0%, ., -10, 1.2%
NC(=O)c1cc(S(=O)(=O)NC2CCCCC2)co1
    1.5%, -1.0, 2, 16%, 0.2, -1, 30%[38.3 µM]
COc1cc(C(c2oc(CO)cc(=O)c2O)c2oc(CO)cc(=O)c2O)cc(OC)c1OC
    0.9%, 0.5, 0, -25%, 0.0, 9, 1.1%

High-throughput results (PubChem)
